Screening data: PubChem BioAssay, Broad Institute
Shh pathway inh – Sonic Hedgehog pathway inhibition. inhibition, % (no concentration beside the values). Shh-LIGHT2 Gli-luciferase reporter, 30 h. 22,000 tested, 2.1% active;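 active = replicate mean of 65% or more; inconclusive = mean lower but half the replicates past it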;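 also: pathway switched on by Shh-conditioned medium diluted 1 in 25 in low serum; 100 nL library stock added to about 40 µL; 0% = median of neutral wells and 100% = positive control level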
YB-1 expression – YB-1 expression inhibition; U2OS, qRT-PCR YB-1 vs CDIP delta delta Cp, 16 h; stronger effect = higher value; zero = DMSO, each unit about twofold; delta delta Cp (YB-1 minus CDIP) (concentration not given with the values); 30,000 tested, 0.37% active;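 active = delta delta Cp rounded down to an integer at or above 3, about 3 SD of DMSO wells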;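 also: higher means less YB-1 transcript or more CDIP transcript relative to DMSO; stock transfer was 100 nL into about 100 µL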
PD-1 reversal – reversal of PD-1 mediated T-cell inhibition; activation, % (test concentration not listed); 29,000 tested, under 10 active; primary human CD4 T cells, PD-L1 beads, CellTiter-Glo 96 h;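 active = replicate mean of 50% or more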;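 also: 0% = median vehicle wells and 100% = positive control; 100 nL library stock added to about 50 µL; numbers are from one replicate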
MITF inhib – blocks MITF activity; AID 2240; inhibition, % (no concentration beside the values); TRPM1 promoter luciferase, luminescence, 24 h; 37,000 tested, 0.28% active;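 active = most replicates at 85% or more, or half of them and the mean; inconclusive = half reach 85% but not the mean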;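 also: human melanocyte line stably carrying TRPM1 promoter luciferase reporter; 0% = vehicle wells and 100% = a positive control; the first replicate is given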
* = called active by the depositor; ? = inconclusive; · = no result given; & = joins results of further samples. These rows are one share of the data; count on the stated rates, not on these rows.

SMILES	Shh pathway inh	YB-1 expression	PD-1 reversal	MITF inhib
Fc1ccc(C(c2ccc(F)cc2)N2CCN(C/C=C/c3ccccc3)CC2)cc1	4&-15	0.055&-0.059	-9.0	-9&-7
Cc1cc(OCC(=O)Nc2ccccc2CO)cc(C)c1Br	·	·	0.3	-18
O=C(/C=C/CCc1ccc2c(c1)OCO2)N1CCCCC1	-42	-0.15	0.9	16
COc1cc(-c2cc(O)c(OC)c(OC)c2)cc(O)c1OC	-28	0.27	-0.5	-13
Cc1cc(=O)[nH]c(SC(C)C(=O)Nc2cccc(Cl)c2)n1 (stereo not given)	·	·	-0.3	19
CC(C)NC(=O)Nc1cccc2c1O[C@H](CN(C)Cc1ccc3c(c1)OCO3)[C@@H](C)CN([C@@H](C)CO)C2=O	-72	0.17	-0.4	-8
C[C@H]1CN([C@@H](C)CO)C(=O)Cc2cc(NS(=O)(=O)c3cn(C)cn3)ccc2O[C@@H]1CN(C)Cc1ccccc1	22	-0.5	-0.1	2
C[C@@H]1CN([C@@H](C)CO)C(=O)Cc2cc(NC(=O)Nc3ccc(F)cc3)ccc2O[C@@H]1CN(C)C(=O)Nc1cccc2ccccc12	-26	0.18	·	-11
COc1cccc(NC(=O)CSc2nnc(-c3cccc(OC)c3)n2-c2ccc(Cl)cc2)c1	·	·	0.8	3
C[C@@H]1CN([C@@H](C)CO)C(=O)Cc2cc(NC(=O)C3CCCCC3)ccc2O[C@@H]1CN(C)C(=O)Nc1cccc2ccccc12	16	-0.17	1.3	-9
C[C@H]1CN([C@@H](C)CO)C(=O)c2cc(NS(=O)(=O)c3ccc(Cl)cc3)ccc2O[C@@H]1CN(C)Cc1ccc2c(c1)OCO2	-7	0.12	-3.9	-6
COc1ccc(CN(C)C[C@H]2Oc3ccc(NC(=O)Nc4ccc(C(F)(F)F)cc4)cc3CC(=O)N([C@@H](C)CO)C[C@H]2C)cc1	·	-0.069	·	19
C[C@H](CO)N1C[C@H](C)[C@H](CN(C)Cc2ccc(Cl)c(Cl)c2)Oc2c(NS(=O)(=O)c3ccccc3)cccc2C1=O	82*	-0.13	·	1
COc1cccc(S(=O)(=O)Nc2ccc(C(=O)Nc3ccc4c(c3)OCCO4)cc2)c1	·	·	3.4	-23
CCc1nc(SCC(=O)Nc2cccc(Cl)c2)n[nH]1	·	·	0.3	-6
COc1cc(OC)c(C(O)C(C)O)cc1OC (stereo not given)	-1	0.99	1.7	2
C[C@H](CO)N1C[C@H](C)[C@@H](CN(C)Cc2ccc3c(c2)OCO3)Oc2ccc(NC(=O)C3CC3)cc2C1=O	-10	-0.06	1.6	-1
C[C@H]1CN([C@@H](C)CO)C(=O)c2cccc(NC(=O)C3CCOCC3)c2O[C@@H]1CN(C)Cc1ccncc1	-11	0.22	3.9	-2
C[C@@H]1CCCCO[C@@H](CN(C)C(=O)Nc2cccc3ccccc23)[C@@H](C)CN([C@H](C)CO)C(=O)c2cc(NS(=O)(=O)c3cccs3)ccc2O1	·	-0.55	·	7
Nc1nnc(SCC(=O)Nc2ccc3c(c2)OCCO3)s1	·	·	0.4	-26
Cc1sc2nc3c4ccccc4c(NCCO)nn3c(=O)c2c1C	·	0.17	-0.5	12
Cc1noc(C)c1S(=O)(=O)N(C)C[C@@H]1Oc2c(NC(=O)c3ccc(-c4nccs4)cc3)cccc2C(=O)N([C@H](C)CO)C[C@@H]1C	29	-0.13	0.0	-12
CC1=C(C(=O)O)N2C(=O)[C@@H](NC(=O)[C@H](N)c3ccccc3)[C@H]2SC1	46	-0.15	·	-2
Cc1noc(C)c1S(=O)(=O)N(C)C[C@@H]1Oc2ccc(NC(=O)NC(C)C)cc2CC(=O)N([C@@H](C)CO)C[C@@H]1C	·	-0.53	0.4	-1
C[C@H](CO)N1C[C@H](C)[C@H](CN(C)C(=O)Nc2cccc3ccccc23)Oc2ccc(NS(=O)(=O)c3ccc(F)cc3)cc2C1=O	·	0.93	-1.5	-8

(next part)
SMILES	Shh pathway inh	YB-1 expression	PD-1 reversal	MITF inhib
C[C@@H]1CN([C@@H](C)CO)C(=O)c2cccc(NC(=O)c3ccncc3)c2O[C@@H]1CN(C)S(=O)(=O)c1ccccc1	-38	2.4	2.5	-52
Cc1nc2ccccc2cc1C(N)=O	·	-0.32	0.2	-36
Cc1noc(C)c1NC(=O)N(C)C[C@@H]1Oc2ccc(NC(=O)NC(C)C)cc2CC(=O)N([C@@H](C)CO)C[C@@H]1C	-6	-0.025	-0.2	-12
Cc1noc(C)c1S(=O)(=O)Nc1cccc2c1O[C@@H](CN(C)S(C)(=O)=O)[C@@H](C)CN([C@H](C)CO)C2=O	9	0.13	2.2	-10
C[C@H]1CN([C@@H](C)CO)C(=O)c2cc(NC(=O)Nc3ccc4c(c3)OCO4)ccc2O[C@@H]1CN(C)CC1CCCCC1	19	0.14	-0.1	-11
C/C(=C\CC[C@@H](C)[C@H]1CC[C@@]2(C)C3CC[C@H]4C(C)(C)[C@@H](OC5OC(CO)C(OC6OC(CO)C(O)C(O)C6O)C(O)C5O)CC[C@@]45C[C@@]35CC(O)[C@]12C)C(=O)O (stereo not given in full)	-19	0.083	-0.8	14
Cc1ccc2c(c1)c1c(n2CC(O)Cn2nc(C)c(Br)c2C)CCCC1 (stereo not given)	·	·	-2.9	7
C[C@@H]1CN([C@H](C)CO)C(=O)Cc2cc(NC(=O)Cc3ccccc3)ccc2O[C@H]1CN(C)Cc1ccc(C(F)(F)F)cc1	-1	-0.1	1.7	-10
C[C@H]1CN([C@@H](C)CO)C(=O)c2cccc(NC(=O)Nc3ccc(C(F)(F)F)cc3)c2O[C@@H]1CN(C)Cc1ccc(C(F)(F)F)cc1	-13	0.028	-4.8	30
c1ccc2c3c([nH]c2c1)[C@H]1C2CCC([C@@H]4CCCN[C@H]24)N1CC3 (stereo not given in full)	8	-0.2	·	0
Cc1noc(C)c1NC(=O)Nc1ccc2c(c1)C(=O)N([C@H](C)CO)C[C@H](C)[C@@H](CN(C)S(C)(=O)=O)O2	26	0.18	0.6	-2
O=C(CNS(=O)(=O)c1cc(Cl)ccc1Cl)Nc1ccc(Br)cc1F	·	·	-1.1	5
Cc1sc2ncnc(SCC(=O)Nc3nsc(-c4ccccc4)n3)c2c1C	·	·	-1.7	-92
C[C@@H]1CN([C@H](C)CO)C(=O)c2cc(NC(=O)CCN3CCOCC3)ccc2O[C@@H]1CN(C)S(=O)(=O)c1cn(C)cn1	-35	-0.36	·	-5
COc1ccc(Cl)cc1NC(=O)COc1ccccc1[N+](=O)[O-]	·	·	-0.6	-24
C[C@H](CO)N1C[C@H](C)[C@@H](CN(C)Cc2ccc(Oc3ccccc3)cc2)Oc2ccc(N(C)C)cc2C1=O	7	0.14	-1.8	10
CCOc1ccccc1NC(=S)NCc1ccco1	·	·	-2.4	6
COc1ccc(NC(=O)Nc2ccc3c(c2)CC(=O)N([C@@H](C)CO)C[C@H](C)[C@@H](CN(C)CC2CC2)O3)cc1	10	-0.26	·	-10
Cc1ccc(S(=O)(=O)N(C(=O)c2ccncc2)c2ccc(OC(=O)c3ccncc3)cc2)c(C)c1	·	·	-0.3	1
CC1OC(OC2C(CO)OC(OC(=O)[C@]34CCC(C)(C)CC3C3=CCC5[C@@]6(C)CC[C@H](OC7OC(C)C(OC8OCC(O)(COC9OCC(O)C(OC%10OCC(OC%11OCC(O)(CO)C%11O)C(O)C%10O)C9O)C8O)C(O)C7O)C(C)(C)C6CC[C@@]5(C)[C@]3(C)CC4)C(O)C2O)C(O)C(O)C1O (stereo not given in full)	3	-0.45	-3.1	-6
COc1ccc2c(C)nc(Nc3nc(C)cc(=O)[nH]3)nc2c1	·	·	-1.1	35
C[C@H]1CN([C@@H](C)CO)C(=O)Cc2cc(NC(=O)CCN3CCOCC3)ccc2O[C@@H]1CN(C)C(=O)Nc1ccc(F)cc1	-12	-0.11	·	2
O=C(O)c1ccccc1Nc1nc(N2CCOCC2)nc(N2CCOCC2)n1	·	·	-0.2	-146
COc1cccc(OCC(=O)Nc2ccccc2C(=O)Nc2ccc(C(=O)O)cc2)c1	·	·	-1.5	-10
C[C@@H]1CN([C@@H](C)CO)C(=O)Cc2cc(NS(=O)(=O)c3ccc(F)cc3)ccc2O[C@@H]1CN(C)Cc1ccc(C(=O)Nc2ccccc2N)cc1	·	-0.19	0.0	25

Arranged by heavy-atom count (highest first): 4 of the compounds above
SMILES	Shh pathway inh	YB-1 expression	PD-1 reversal	MITF inhib
C[C@@H]1CN([C@@H](C)CO)C(=O)Cc2cc(NS(=O)(=O)c3ccc(F)cc3)ccc2O[C@@H]1CN(C)Cc1ccc(C(=O)Nc2ccccc2N)cc1	·	-0.19	0.0	25
Cc1noc(C)c1S(=O)(=O)Nc1cccc2c1O[C@@H](CN(C)S(C)(=O)=O)[C@@H](C)CN([C@H](C)CO)C2=O	9	0.13	2.2	-10
Cc1ccc(S(=O)(=O)N(C(=O)c2ccncc2)c2ccc(OC(=O)c3ccncc3)cc2)c(C)c1	·	·	-0.3	1
Cc1sc2ncnc(SCC(=O)Nc3nsc(-c4ccccc4)n3)c2c1C	·	·	-1.7	-92

Following part.
SMILES	Shh pathway inh	YB-1 expression	PD-1 reversal	MITF inhib
Cc1ccc(S(=O)(=O)Nc2cccc3c2O[C@@H](CN(C)Cc2ccc(Cl)c(Cl)c2)[C@H](C)CN([C@@H](C)CO)C3=O)cc1	12	-0.34	0.0	16
Cc1ccc(-n2c(C)nnc2SCC(=O)Nc2cc(C(F)(F)F)ccc2Cl)cc1	·	·	-1.4	7
CCCCn1c(Cc2ccccc2)nc2ccccc21	-14	-0.19	0.2	-21
C[C@@H]1CN([C@H](C)CO)C(=O)c2cccc(NC(=O)Nc3ccc(F)cc3)c2O[C@H]1CN(C)Cc1ccc2c(c1)OCO2	0	-0.53	-5.3	11
C[C@H]1CN([C@@H](C)CO)C(=O)c2cccc(NC(=O)NC3CCCCC3)c2O[C@H]1CN(C)Cc1ccncc1	-8	-0.35	1.1	4
Cc1noc(C)c1NC(=O)N(C)C[C@H]1Oc2ccc(NS(=O)(=O)c3ccc(F)cc3)cc2CC(=O)N([C@@H](C)CO)C[C@@H]1C	2	-0.41	3.8	-2
CC(C)(C)CC[n+]1ccc(/C=N/O)cc1	17	-0.4	-0.3	-4
CC(NS(=O)(=O)c1ccc(Br)cc1)C(=O)Nc1ccc(Cl)cc1Cl (stereo not given)	·	·	-1.6	19
Cc1noc(C)c1NC(=O)Nc1cccc2c1O[C@H](CN(C)C(=O)Nc1ccccc1)[C@H](C)CN([C@@H](C)CO)C2=O	25	-0.41	0.2	-5
C[C@H](CO)N1C[C@H](C)[C@H](CN(C)S(=O)(=O)c2cn(C)cn2)Oc2c(NS(=O)(=O)c3cccs3)cccc2C1=O	?	0.17	1.7	-18
C[C@@H]1CN([C@H](C)CO)C(=O)c2cc(NC(=O)Nc3cccc4ccccc34)ccc2O[C@@H]1CN(C)C(=O)Nc1ccccc1	-14	-0.2	-0.6	-13
C[C@H]1CN([C@@H](C)CO)C(=O)c2cc(NS(=O)(=O)c3ccc(F)cc3)ccc2O[C@@H]1CN(C)Cc1ccc2c(c1)OCO2	·	0.16	-3.2	-12
C[C@H](CO)N1C[C@H](C)[C@@H](CN(C)C(=O)Nc2cccc3ccccc23)Oc2c(NC(=O)Nc3cccc4ccccc34)cccc2C1=O	37	-0.058	·	0
COc1cccc(-c2cc(NCc3ccc4c(c3)OCO4)nc(N)n2)c1	?	0.016	-25	-1
CCOC(=O)c1ccc(NC(=O)CSc2nc3sc4c(c3c(=O)[nH]2)CCCC4)cc1	·	·	2.2	3
CCc1nc(SCC(=O)N2CCCc3ccccc32)n[nH]1	·	·	2.9	-17
C[C@@H]1CCCCO[C@@H](CN(C)C(=O)Nc2ccccc2)[C@@H](C)CN([C@H](C)CO)C(=O)c2cc(NC(=O)CCCN(C)C)ccc2O1	-27	0.091	0.6	-1
C[C@@H]1CN([C@H](C)CO)C(=O)c2cc(NS(=O)(=O)c3cn(C)cn3)ccc2O[C@H]1CN(C)S(=O)(=O)c1cccs1	9	0.14	-0.1	-17
CCOC(=O)C1=C(C)NC(=S)NC1c1cccc(O)c1 (stereo not given)	10	-0.37	-1.7	8
C[C@@H]1CN([C@H](C)CO)C(=O)c2cccc(NC(=O)CCCCCC(=O)Nc3ccccc3N)c2O[C@@H]1CN(C)C	·	-0.088	1.1	-28
C[C@@H]1CN([C@@H](C)CO)C(=O)c2cccc(NC(=O)CCCCCC(=O)Nc3ccccc3N)c2O[C@H]1CN(C)C(=O)Nc1ccc2c(c1)OCO2	·	-0.19	0.9	-9
COc1ccc(-c2nnc(SCc3ccc(OC)c([N+](=O)[O-])c3)n2-c2ccccc2)cc1	·	·	0.8	9
Cc1noc(C)c1NC(=O)N(C)C[C@H]1Oc2ccc(NC(=O)Nc3ccc4c(c3)OCO4)cc2C(=O)N([C@@H](C)CO)C[C@H]1C	14	-0.031	0.1	-9
